# Bioassay records as filed in PubChem.
# Calb FLC = affects C. albicans growth with fluconazole | actives 0.57% (n = 300,000) | growth inhibition, % (no concentration beside the values) | C. albicans CaCi-2 (fluconazole-resistant clinical isolate) + fluconazole, Alamar Blue growth, 48 h | AID 1979;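 active = most replicates above 75%; inconclusive = exactly half above 75%; inactive = most below 75%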;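 note: all wells also contain fluconazole at 8 µg/ml as a sub-toxic cotreatment; 0% = median of DMSO wells and 100% = median of geldanamycin control wells; wells of about 8 µL received 7.5 nL stock; the first replicate is given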
# Beta cell apopt = blocks beta cell apoptosis; INS-1E cytokine-induced death, ATP luminescence, 48 h; percent of positive-control rescue, neutral wells zero; protection from apoptosis, % (no concentration beside the values); actives 0.8% (n = 300,000); AID 435005;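 active = all replicates at 75% or more, or half of them and the mean; inconclusive = half reach 75% but not the mean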;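 note: 0% = cytokine-treated negative control wells and 100% = positive control rescue; higher means more ATP so stronger rescue from cytokine killing; wells of about 40 µL received 100 nL stock; the first replicate is given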
# T cruzi repl = T. cruzi replication inhibition; AID 1885; T. cruzi beta-gal in NIH3T3, luminescence, 90 h; actives 1.4% (n = 300,000); inhibition, % (concentration not given with the values);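 active = mean inhibition across valid replicates above about 55%, limit read from the data; inconclusive = mean below that limit but half or more replicates reach it; inactive = mean below it, under half of replicates reach it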;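 note: signal also drops with host cell toxicity which is not excluded here; 0% = plate median of DMSO wells and 100% = zero luminescence signal; higher percent means less beta-gal luminescence so fewer parasites; stock transfer was 50 nL into about 50 µL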
# Bfl-1 A1 inh = inhibitors of the anti-apoptotic protein A1, read as caspase activation; MEF A1-2A-BIM cells, Caspase-Glo 3/7 luminescence, 3 h; percent of clofoctol response, vehicle zero; caspase activation, % (concentration not given with the values); actives 0.066% (n = 330,000); AID 2462;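 active = over half of replicate activation scores above 10%, or exactly half above 10 with the replicate mean above 10; inconclusive = replicate mean below 10 yet half the replicates above 10; inactive = over half of replicates below 10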;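 note: wells of about 30 µL received 50 nL stock; many hits fall short of the cut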
# LANA-H2B inh = blocks KSHV LANA binding to histone H2A/H2B; Q9QR71; cell-free LANA-H2A/H2B peptide, fluorescence polarization; inhibition, % (no concentration beside the values); actives 0.6% (n = 320,000); AID 2629; in the data active = inhibition mostly above about 10%, no sharp cut-off; inactive = mostly below about 6.7%;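 note: stock transfer was 7.5 nL into about 10 µL; 0% = median of vehicle wells and 100% = median of positive control wells; one replicate is shown; the record names a cut of 25% in any replicate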
# Target sequence (Q9QR71 whole entry, looked up): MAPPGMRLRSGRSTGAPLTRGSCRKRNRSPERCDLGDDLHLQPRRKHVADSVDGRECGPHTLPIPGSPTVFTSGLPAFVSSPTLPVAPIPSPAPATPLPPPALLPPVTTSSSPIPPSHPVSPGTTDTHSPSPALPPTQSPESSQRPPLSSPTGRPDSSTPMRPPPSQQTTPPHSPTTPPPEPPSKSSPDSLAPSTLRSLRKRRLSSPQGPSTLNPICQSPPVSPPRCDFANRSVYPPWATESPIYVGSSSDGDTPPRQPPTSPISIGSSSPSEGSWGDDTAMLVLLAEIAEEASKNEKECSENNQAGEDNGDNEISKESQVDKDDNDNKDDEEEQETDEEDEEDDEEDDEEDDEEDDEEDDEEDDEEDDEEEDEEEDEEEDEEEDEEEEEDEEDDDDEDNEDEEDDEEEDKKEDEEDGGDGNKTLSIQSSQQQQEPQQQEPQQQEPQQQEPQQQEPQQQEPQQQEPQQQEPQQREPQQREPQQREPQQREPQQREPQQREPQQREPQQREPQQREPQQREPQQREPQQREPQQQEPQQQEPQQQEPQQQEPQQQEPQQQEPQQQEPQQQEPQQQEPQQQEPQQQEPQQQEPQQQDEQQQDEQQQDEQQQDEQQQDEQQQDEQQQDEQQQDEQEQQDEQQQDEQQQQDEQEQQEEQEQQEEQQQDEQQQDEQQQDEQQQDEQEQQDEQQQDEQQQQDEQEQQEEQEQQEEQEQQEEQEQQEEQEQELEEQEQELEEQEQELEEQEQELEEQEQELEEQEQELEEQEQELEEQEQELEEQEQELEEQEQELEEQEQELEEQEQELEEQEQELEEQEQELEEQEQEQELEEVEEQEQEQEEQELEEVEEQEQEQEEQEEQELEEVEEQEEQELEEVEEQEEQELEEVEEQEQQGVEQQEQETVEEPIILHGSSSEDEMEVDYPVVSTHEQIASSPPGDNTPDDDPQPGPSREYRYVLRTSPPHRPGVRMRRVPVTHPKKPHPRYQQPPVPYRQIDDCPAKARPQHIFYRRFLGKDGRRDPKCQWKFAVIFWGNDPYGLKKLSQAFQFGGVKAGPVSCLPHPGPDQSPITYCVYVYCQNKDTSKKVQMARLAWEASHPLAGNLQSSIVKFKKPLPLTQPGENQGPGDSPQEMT
# UCH37 DUB inh = human UCH37 deubiquitinating enzyme inhibition. Q9Y5K5. purified proteasome/UCH37, Ub-AMC cleavage fluorescence. inhibition, % (test concentration not listed). actives 0.33% (n = 330,000);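 active = mean of two replicates above 20%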;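 note: 0% = compound-free wells with enzyme and 100% = wells lacking proteasome; stock transfer was 100 nL into about 20 µL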
#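 Test system – human UCH37 enzyme supplied as purified proteasome complex · Incubation – 30 min preincubation with enzyme, 25 min cleavage at room temperature · Detection – AMC fluorescence from Ub-AMC cleavage, excitation 355 nm, emission 460 nm · Benchmarks – no-proteasome wells (full inhibition) and compound-free wells (no inhibition)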
# RanGTP-Imp inh = inhibitors of RanGTP-importin-beta interaction, primary screen, biochemical, FRET, CFP-Ran, YFP-importin-beta, homogeneous; cell-free CFP-Ran/YFP-importin-beta FRET ratio; inhibition, % (no concentration beside the values); actives 1.1% (n = 300,000); AID 2216;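 active = most replicates above 15%; inconclusive = exactly half above 15%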;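 note: 0% = DMSO wells and 100% = Ran loaded with GDP instead of GTP; wells of about 40 µL received 100 nL stock; the first replicate is given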
# Beta2AR agonist = activates human beta-2 adrenergic receptor causing internalization; response, % (concentration not given with the values); P07550; Am2.2-beta2AR cells, FAP receptor internalization, flow cytometry; reference of the scale not given here; actives 0.43% (n = 340,000);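 active = response above a set limit, near 3 SD of response in nonfluorescent compounds, cut at about 42% in these data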;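 note: stock transfer was 100 nL into about 11 µL; a reference agonist was the positive control; negative values mostly stem from fluorescent compounds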
# * = called active by the depositor; u = inconclusive; x = no result given.
SMILES,Calb FLC,Bfl-1 A1 inh,LANA-H2B inh,Beta2AR agonist,T cruzi repl,Beta cell apopt,RanGTP-Imp inh,UCH37 DUB inh
CC(C)=CC(=O)Nc1ccc(S(=O)(=O)Nc2ccccn2)cc1,-7,0.6,-2.6,-1,5,-3,0.5,1.2
CC(C)CNC(=O)COC(=O)CCC(=O)c1ccc(Cl)cc1,-2,0.5,0.3,-2,-8,-6,1.8,2.9
NS(=O)(=O)c1cccc(NC(=O)Cn2cnc3ccccc3c2=O)c1,-14,0.2,-3.2,0,-6,-1,1.1,0.0
Cc1ccc(-c2c[nH]c(=S)n2-c2ccccc2F)cc1,-9,0.9,-1.4,-4,-9,-1,-1.0,2.3
Cc1cc(S(=O)(=O)NCCN(C)C)c(C)s1,-23,0.5,-2.0,7,-2,-5,5.9,1.0
CCn1nc(C)c(CN2CCC(n3nccc3NC(=O)c3ccc4c(c3)OCO4)CC2)c1C,0,1.1,4.6,2,0,-1,u,3.8
Cc1ccc(S(=O)(=O)Nc2ccccc2CNC2CCCCC2)cc1,-6,-0.5,2.7,0,13,6,x,3.8
CCOc1nc(-c2ccc(OC)cc2)ccc1-c1noc(-c2cc(OC)c(OC)c(OC)c2)n1,6,1.1,-7.2,3,-12,2,u,-217
Cc1cccc(NC(=O)Cn2cnc3ccccc3c2=O)c1C,-13,0.8,0.6,4,-2,-4,0.4,-0.4
CCN(c1ccc(OC)cc1)S(=O)(=O)c1nnc(NC(=O)c2ccco2)s1,49,-0.2,0.4,-1,-12,0,-1.0,3.4
CN(Cc1ccco1)S(=O)(=O)c1csc(C(N)=O)c1,6,-0.3,-5.8,2,-13,4,7.6,3.0
OCCn1c(CSc2nnc(-c3ccco3)n2-c2ccccc2)nc2ccc(Cl)cc21,12,-0.4,2.0,2,10,0,u,4.4
COc1ccc(Nc2nc(Cl)nc(NCCO)n2)cc1,-14,-0.3,0.4,7,-9,-8,-2.3,-0.5
CC1CC(C)CN(CC(=O)c2cccs2)C1 (stereo not given),-4,0.2,1.9,5,-9,-2,-2.4,2.7
Cc1cc(NO)nc(-c2ccc(Br)cc2)n1,-12,-0.2,-3.3,-11,-3,0,3.7,2.3
CC(C)(Oc1ccc(Cl)cc1)C(=O)NCCCn1ccnc1,-2,-0.1,-1.2,-2,-14,-5,2.1,1.4
CCCCc1nc(SCC(=O)Nc2nnc(C(C)C)s2)n[nH]1,10,-0.4,0.8,-13,7,-1,-0.2,0.3
S=C(NCc1cccnc1)Nc1ccc(Cl)cc1,0,-0.8,0.5,-10,-5,-1,0.7,-2.1
C=C(C)CNC(=S)Nc1sc2c(c1C(=O)OCC)CC(C)(C)OC2,0,-1.1,-0.2,0,-1,1,-4.3,6.2
COc1cc2cc(C(=O)N3CCN(c4ccccc4OC)CC3)[nH]c2cc1OC,-1,-0.6,-1.8,-5,-4,-5,-4.5,-21
O=C(O)c1ccc(NS(=O)(=O)c2cccc(S(=O)(=O)c3ccc(Cl)c(Cl)c3)c2)cc1,-1,0.1,-1.1,12,-8,2,-0.5,1.3
Cc1ccc(-c2cc(C(=O)Nc3sc4c(c3C(=O)NCc3ccco3)CCC4)[nH]n2)c(O)c1,50,-0.2,-2.9,0,40,1,u,-112
O=C(c1ccccc1Sc1ccc([N+](=O)[O-])cc1)N1CCCCC1,10,1.0,-0.7,20,-12,2,5.0,4.6
C#CCOCCOCCOCCNc1nc(N2CCN(C(=O)[C@H]([C@@H](C)CC)n3cc([C@@H](N)CC(C)C)nn3)CC2)nc(N2CCN(C(=O)[C@H](Cc3cc4ccccc4[nH]3)n3cc([C@@H](N)C(C)CC)nn3)CC2)n1 (stereo not given in full),3,x,x,x,5,x,1.9,1.5

# Entries of single compounds, quoted from the list. Values in the order: Calb FLC | Bfl-1 A1 inh | LANA-H2B inh | Beta2AR agonist | T cruzi repl | Beta cell apopt | RanGTP-Imp inh | UCH37 DUB inh
# Shown for `C=C(C)CNC(=S)Nc1sc2c(c1C(=O)OCC)CC(C)(C)OC2` = 0 | -1.1 | -0.2 | 0 | -1 | 1 | -4.3 | 6.2
# Shown for `CCn1nc(C)c(CN2CCC(n3nccc3NC(=O)c3ccc4c(c3)OCO4)CC2)c1C` = 0 | 1.1 | 4.6 | 2 | 0 | -1 | u | 3.8
# Shown for `CN(Cc1ccco1)S(=O)(=O)c1csc(C(N)=O)c1` = 6 | -0.3 | -5.8 | 2 | -13 | 4 | 7.6 | 3.0
# Shown for `CCN(c1ccc(OC)cc1)S(=O)(=O)c1nnc(NC(=O)c2ccco2)s1` = 49 | -0.2 | 0.4 | -1 | -12 | 0 | -1.0 | 3.4

# Later entries
SMILES,Calb FLC,Bfl-1 A1 inh,LANA-H2B inh,Beta2AR agonist,T cruzi repl,Beta cell apopt,RanGTP-Imp inh,UCH37 DUB inh
Cc1cc(=O)[nH]c(SCc2ccc(Cl)cc2)n1,4,-1.0,2.2,9,-4,-9,2.4,1.2
CCOC(=O)N1CCC(NC(=O)c2ccc3c(c2)N=C(CC)c2ccccc2S3)CC1,26,-0.1,-0.8,5,18,x,-0.9,-0.7
CC(c1ccco1)N(C(=O)c1ccccc1NS(=O)(=O)c1cccc([N+](=O)[O-])c1)c1ccccn1 (stereo not given),1,0.1,-0.6,1,-22,2,1.1,2.2
N=c1ccn(Cc2ccc(Cl)cc2Cl)cc1,-2,-0.2,x,-7,19,103*,3.7,2.8
O=C(COc1ccc(S(=O)(=O)N2CCCC2)cc1Cl)Nc1ccc2c(c1)OCO2,1,1.0,-4.2,-2,17,5,3.5,6.0
O=C(CSc1nnc(-c2ccccc2)c(-c2ccccc2)n1)N1CCc2ccccc21,15,-0.9,-0.4,-9,22,-3,4.5,2.7
COc1ccc(C)c(-n2c(=O)n(Cc3ccccc3)c(=O)c3[nH]cnc32)c1,-4,0.0,-5.1,0,15,-3,-1.2,5.7
O=C(N/N=C/C=C/c1ccco1)c1cnccn1,-4,0.3,5.1,-1,1,1,1.4,x
O=C(CC1CCCCC1)N1CCC(c2nc(-c3ccc(S(=O)(=O)N4CCCC4)cc3)no2)CC1,-10,1.2,5.1,2,-8,19,1.8,0.6
Cc1nc(-c2ccc(S(=O)(=O)NCc3cccnc3)s2)cs1,14,-0.1,2.1,-9,-19,3,-0.2,2.9
CC1CC(C)(C)N(C(=O)CN2C(=O)c3ccccc3C2=O)c2ccccc21 (stereo not given),2,-0.5,10,-6,2,5,-2.8,0.2
C[C@H](CO)N1C[C@H](C)[C@@H](CN(C)S(=O)(=O)c2ccccc2)Oc2ccc(NS(=O)(=O)c3ccc(F)cc3)cc2C1=O,x,-0.8,-2.0,-8,x,-8,x,-2.5
C=CCNC(=O)c1cccc(Br)c1,u,0.8,1.8,5,-10,-4,24*,2.8
O=C1CNC(=O)/C(=C/c2ccco2)N1,1,0.1,-2.7,4,-11,0,-5.9,4.6
CCOc1ccc(/C=C/c2[nH]c(=O)[nH]c(=O)c2[N+](=O)[O-])cc1,-3,0.3,1.6,-14,-4,-10,0.0,8.9
CC(CCc1ccccc1)NC(=O)c1ccc(NC(=O)c2cccc(Br)c2)cc1 (stereo not given),5,-0.1,-5.4,-7,70*,8,-2.6,-1.7
COc1ccc(OC)c(CNC(=O)C2CCCN(S(=O)(=O)N3CCC(C)CC3)C2)c1 (stereo not given),-3,1.1,-0.9,-1,13,0,-1.8,1.4
Cc1cc(N2CCCC2=O)ccc1S(=O)(=O)NC1CCCCC1,-4,0.2,-0.9,-7,5,1,0.5,3.3
CC(=O)N=c1c(C#N)cc2c(=O)n3ccccc3nc2n1CCCOC(C)C,0,1.2,1.5,1,-3,-1,102*,-487
O=c1[nH]c(-c2cccnc2)nc2sc(-c3ccccc3)cc12,17,0.3,1.3,4,-2,13,6.8,-148
COc1ccc(CCNC(=O)CN(CCc2ccccc2)S(C)(=O)=O)cc1OC,-22,0.1,2.7,-1,3,-3,-0.8,0.2
COc1ccc(C(=O)OCC(=O)NC(=O)NCc2ccccc2)cc1[N+](=O)[O-],x,-1.4,1.8,-13,x,0,x,2.4
O=C(NCc1cc(C(F)(F)F)cc(C(F)(F)F)c1)C1CC(c2ccccc2F)=NO1 (stereo not given),4,1.4,-3.7,0,4,-2,1.2,4.0
Cc1cccc(-c2n[nH]c(=S)n2Cc2ccccc2)c1,3,-0.2,-0.9,1,0,3,-2.9,1.7
COc1ccc(CC(=O)Nc2nc(-c3ccc(OC)c(OC)c3)cs2)cc1OC,-6,-0.9,1.0,5,14,17,0.7,0.2
Cc1ccc2nc(-c3ccncc3)[nH]c2c1,-4,-9.6,-1.5,0,-3,-2,0.3,-82
CC(=O)c1ccc(NC(=O)CCC(=O)OCC(F)(F)C(F)F)cc1,-2,0.3,0.2,6,-5,3,1.5,1.3
O=C(Nc1nc(-c2cccs2)cs1)c1ccco1,u,-5.7,5.8,15,35,x,1.9,0.9
CCC(C(=O)OCC(=O)NC1CCS(=O)(=O)C1)c1ccccc1 (stereo not given),1,1.2,-7.1,3,-4,-1,x,5.3
O=c1cc(-c2ccc(F)cc2)[nH][nH]1,18,0.9,1.0,-3,-10,-4,5.2,4.1
CC(O)c1nc2c(c(=O)n(C)c(=O)n2C)n1C (stereo not given),2,1.1,2.4,-11,4,-11,1.6,-2.7
COc1ccc(C(=O)Nc2nc3ccccc3[nH]2)cc1,3,-10,-4.4,-12,5,x,0.8,1.8
CC(C)C(C(=O)NCc1ccco1)N(CC1CCCO1)C(=O)CNS(=O)(=O)c1ccccc1 (stereo not given),-11,0.4,0.9,4,-5,-6,-1.5,0.2
Cc1cc(S(=O)(=O)Nc2ccc(C(=O)N3CC(C)OC(C)C3)cc2)ccc1F (stereo not given),-2,-0.2,-4.7,4,-5,7,2.6,0.6
NC(=O)CSc1nc2c(c(=O)n1-c1ccccc1)C1(CCCCC1)Cc1ccccc1-2,-2,0.9,-0.2,-8,-4,-16,0.9,-1.1
COC(=O)c1c(NC(=O)CSc2nc3ccccc3c(=O)n2-c2ccccc2)sc(C)c1C,5,0.7,-0.6,22,12,13,-3.2,-1.1
O=C(c1ccc(Cl)cc1)C1CCCN(Cc2cnn(-c3ccccc3)c2)C1 (stereo not given),-1,-0.7,-0.2,0,61*,-1,0.8,0.0
COc1ccc(-c2noc(CN(C(=O)c3cccs3)C(C)C)n2)cc1,6,1.3,-3.3,0,9,1,2.6,4.1
CCCn1c(=N)c(S(=O)(=O)c2ccc(F)cc2)cc2c(=O)n3cccc(C)c3nc21,-4,-1.2,9.0,-1,16,x,144*,-272
Cc1ccc(N/C(N)=N/c2nc(C(F)(F)F)cc(C(F)(F)F)n2)cc1,2,0.7,1.1,-6,47,10,-3.8,2.9
